Ab BasE inh: BasE siderophore enzyme inhibitors, primary screen, biochemical, Acinetobacter baumannii ATCC 17978, fluorescence polarization; purified BasE, fluorescence polarization binding displacement; inhibition, % (concentration not given with the values); 0.1% of 84,000 active;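 active = both replicates above 25% with normal brightness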;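 note: 0% = negative plate control signal and 100% = positive plate control signal; stock transfer was 100 nL into about 30 µL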
KSHV LANA nucl: inhibitors of KSHV LANA-nucleosome binding, primary screen, biochemical, fluorescence polarization, FITC-LANA1-23, chicken nucleosomes. FITC-LANA1-23 / chicken nucleosome fluorescence polarization; active compounds read low. z-score (concentration not given with the values). 0.3% of 51,000 active. AID 720717, 2013;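 active = both repeat wells score below -2 in polarization z-score versus plate sample wells, excluding overly bright wells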;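 note: 100 nL library stock added to about 30 µL; numbers are from one replicate; some results filed as inactive read as strong as hits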
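Assay system: FITC-LANA peptide and chicken nucleosomes; input: 240 nM purified chicken nucleosomes (480 nM peptide binding sites), final; also added: 50 nM FITC-LANA1-23 probe; medium: TEN-BT buffer, pH 7.5; doses: pin-transferred compound, 100 nL; times: 10–45 min, room temperature; technique: fluorescence polarization; replication: duplicates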
An asterisk follows results filed as active; · = not tested or not shown; & = joins results of further samples.

SMILES	Ab BasE inh	KSHV LANA nucl
CC(C)OC(=O)CSc1nnc(CNc2ccc(F)cc2)n1C1CCCCC1	0.5	0.72
Cc1ccc(OCC(=O)NS(=O)(=O)c2ccccc2)cc1	2.2	-0.42
Cc1ccc2nc3nc(NCc4cccnc4)c(C(N)=O)cc3c(=O)n2c1	-0.5	0.48
Cc1ccc(S(=O)(=O)NCc2cccnc2)cc1	-1.7	1.1
CCOC(=O)C1CSC2(CCCCC2)N1 (stereo not given)	·	0.66
CC1=NN(c2ccccc2)C(=O)C1C(=O)O (stereo not given)	-0.5	0.13
Nc1nc(SCc2ccc(Cl)c(Cl)c2)n[nH]1	·	-1.7
CNC1=C(c2ccc(C(F)(F)F)cc2)C(=O)C(c2ccccc2)O1 (stereo not given)	·	-0.96
COc1ccc(CCNC(=O)CSc2nc(=O)[nH]c3c2CCCC3)cc1OC	-0.1	-0.94
CCCCP(=O)(c1ccccn1)c1ccccn1	0.4	·
Cc1ccc2oc(-c3ccccc3Cl)nc2c1	-2.3	0.39
O=C(NC1CCCc2ccccc21)C1CCCC1 (stereo not given)	0.7	·
Cc1cccc(-c2n[nH]n3c2nc(=O)c2ccccc23)c1	0.6	-0.32
O=C(NCC(c1ccco1)N1CCCC1)c1ccc(-n2cccn2)cc1 (stereo not given)	-0.3	·
CN(C)c1ccc(O)c2c1C[C@H]1C[C@H]3[C@H](N(C)C)C(=O)C(C(N)=O)=C(O)[C@@]3(O)C(=O)C1=C2O	0.4	-0.29&-0.55&1.5
Cc1c(C#N)c(N)n(Cc2ccco2)c1C	3.3	·
CCc1ccc(OCC(=O)Nc2ccc(S(=O)(=O)C(F)F)cc2)cc1	-5.2	·
COC(=O)/C(=C(/O)CSc1nnc(C2CC2)n1C)c1nc2ccccc2[nH]1	1.5	·
CNC(=O)c1c(C)nc(SCC(=O)OCC(=O)Nc2ccc(C)c(C)c2)c(C#N)c1-c1ccco1	-0.1	·
CC(C)(C)c1ccc(NC(=O)N2CCN(C3c4ccccc4-c4ccccc43)CC2)cc1	·	-1.4
Cn1c(N)c(C(=S)NC(=O)c2cccs2)c(=O)n(C)c1=O	1.3	·
O=C1Nc2ccccc2S/C1=C\C(=O)N1CCN(c2ccc(F)cc2)CC1	2.3	-0.069
COc1ccccc1CN(C)C(C)C(=O)NC1CCCc2ccccc21 (stereo not given)	1.9	·
Cc1cccc(NC(=O)c2ccc(S(=O)(=O)N3CCCCC3)cc2)n1	1.2	-0.97
CCC(Sc1ccccc1C(=O)O)C(=O)O (stereo not given)	3.2	-0.79
CCCCC/C=C\C/C=C\C/C=C\C=C\C(=O)CCCC(=O)O	0.9	-0.6
COCCOC(=O)C1=C(C)OC(N)=C(C#N)C1c1cc2cc3c(cc2nc1Cl)OCO3 (stereo not given)	-0.8	0.28
CNc1c(C(=O)c2ccc(OC)c(OC)c2)sc(N)c1C#N	3.1	-0.15
COc1ccc(NC(=O)c2sc(=S)n3c2[nH]c(=O)c2ccccc23)cc1	1.1	-0.45
NC(=O)C1CCN(C(=O)c2ccccc2)CC1	0.3	0.77
C/C(=N\N=c1/sc2ccccc2n1C)c1ccc(S(=O)(=O)NCc2ccco2)cc1	2.1	·
CC(C)OC(=S)Nc1cccc(Cl)c1	-3.2	·
Cc1cccc(-c2nnc(SCc3nc4sc5c(c4c(=O)[nH]3)CCC(C)C5)n2C)c1 (stereo not given)	-7.9	·
O=C(O)CCS(=O)(=O)c1ccc2c(c1)OCCO2	-2.8	2.4
CCCN(C(=O)c1ccc(=O)n(C)n1)S(=O)(=O)c1ccc(Cl)cc1	-1.4	·
FC(F)(F)c1cc(N2CCN(c3ccccc3)CC2)c2cccc(Cl)c2n1	-1.1	1.1
CC1CCCN(S(=O)(=O)c2cccc(S(C)(=O)=O)c2)C1 (stereo not given)	1.9	-0.6
O=C(CN1c2ccccc2Sc2ccccc21)N/N=C/c1ccco1	4.1	-0.026
CCC(=O)Oc1ccc(C#N)cc1OC	-1.6	-0.35
Cn1ccsc1=NC(=O)Cc1ccc(Cl)c(Cl)c1	-6.5	·

Filtered by structure, those above with a Cl atom
SMILES	Ab BasE inh	KSHV LANA nucl
Nc1nc(SCc2ccc(Cl)c(Cl)c2)n[nH]1	·	-1.7
Cc1ccc2oc(-c3ccccc3Cl)nc2c1	-2.3	0.39
COCCOC(=O)C1=C(C)OC(N)=C(C#N)C1c1cc2cc3c(cc2nc1Cl)OCO3 (stereo not given)	-0.8	0.28
CC(C)OC(=S)Nc1cccc(Cl)c1	-3.2	·
CCCN(C(=O)c1ccc(=O)n(C)n1)S(=O)(=O)c1ccc(Cl)cc1	-1.4	·
FC(F)(F)c1cc(N2CCN(c3ccccc3)CC2)c2cccc(Cl)c2n1	-1.1	1.1
Cn1ccsc1=NC(=O)Cc1ccc(Cl)c(Cl)c1	-6.5	·

Carrying on.
SMILES	Ab BasE inh	KSHV LANA nucl
O=C(Nc1nncs1)c1ccco1	2.3	0.072
Cc1ccccc1Nc1nc(N)nc(CSCC(=O)N2CCc3ccccc32)n1	0.2	·
O=C1S/C(=C\c2ccc(Cl)cc2)C(=O)N1Cc1ccccc1	2.0	·
Cc1nonc1NC(=O)CSc1ccccn1	57*	0.42
O=c1[nH]c(=S)[nH]c2nc(-c3cccs3)cc(C(F)(F)F)c12	5.2	·
Cc1csc2nc(CSCC(=O)N3CC(C)CC(C)C3)cc(=O)n12 (stereo not given)	-0.8	·
C=C(C)c1cccc(C(C)(C)NC(=O)N2CCN(c3ccc(OC)cc3)CC2)c1	1.8	0.036
Cc1ccc(Nc2cc(Nc3ccccc3)ncn2)cc1	-6.6	0.53
COC(CNc1cc(C)nc2c(-c3ccc(Cl)cc3)c(C)nn12)OC	-2.0	0.053
N#Cc1c(SCC(=O)Nc2nccs2)nsc1SCC(=O)Nc1nccs1	5.3	0.16
O=C(COc1ccc(S(=O)(=O)N2CCCC2)cc1)N1CCCC1	0.1	-0.65
COc1cccc(/C=C/C(=O)OCC(=O)N2CCC(C)CC2)c1	2.0	·
Nc1cccc(/C=C/c2ccncc2)c1	4.0	-0.17
CC(=O)N1c2ccccc2N=C(c2ccc(C)cc2)CC1c1ccccc1 (stereo not given)	0.5	·
O=C(C1CCCN(c2ncnc3onc(-c4ccc(F)cc4)c23)C1)N1CCCCC1 (stereo not given)	1.3	·
Cc1cc(C)nc(NCCCC(=O)O)n1	8.9	-0.34
c1ccc(CN=C2NN=C(c3ccccc3)CS2)cc1	0.7	·
COc1ccccc1C(=O)Oc1ccc2sc(=O)oc2c1	-0.6	-1.4
CCSc1nc2sccc2c(=O)n1-c1ccccc1	1.1	·
Cc1cccc(C)c1N(CC(=O)NN=C1CCCCCC1)S(C)(=O)=O	3.8	0.14

The last 2 entries of the part before lead into the next.
Order of values: Ab BasE inh | KSHV LANA nucl
- CCSc1nc2sccc2c(=O)n1-c1ccccc1
→ 1.1 | ·
- Cc1cccc(C)c1N(CC(=O)NN=C1CCCCCC1)S(C)(=O)=O
→ 3.8 | 0.14
- CCNc1cc(N(C)CCO)c2noc3c2c1C(=O)c1ccccc1-3
→ -13 | 3.1
- CCN1CCc2nc3sc(C(=O)Nc4ccccc4)c(N)c3cc2C1
→ 0.1 | 0.22
- CCn1nnnc1SCC(=O)c1ccc(C)cc1C
→ -3.2 | -0.064
- N#Cc1ccc(COC(=O)c2ccc3c(c2)OCCO3)cc1
→ -0.5 | ·
- CCOc1ccc(OCCOC(=O)c2cnc(C)cn2)cc1
→ 0.2 | ·
- COC(=O)C1=NNC2C(=O)N(c3ccccc3C(F)(F)F)C(=O)C12 (stereo not given)
→ 1.2 | -0.15
- COc1cc2c(cc1OC)CN(c1ncnc3c1oc1ccccc13)CC2
→ 0.4 | ·
- O=C(CNCc1ccccc1F)NC(=O)Nc1ccc2c(c1)OCCO2
→ -2.2 | ·
- CCOc1ccc(-n2c(SCC(=O)N(C)C3(C#N)CCCCC3)nc3ccccc32)cc1
→ -2.5 | ·
- COc1ccc(-c2cc(=O)c3c(O)c(OC)c(OC)c(OC)c3o2)cc1
→ -3.6 | 0.18
- CC1CCN(CC(=O)NCc2ccccc2)CC1
→ -0.6 | 0.35
- CC(C)C(C)NC(=O)COc1nc2ccccc2nc1N(C)C1CCCCC1 (stereo not given)
→ 1.8 | ·
- CSc1nc(-c2ccc(C(C)(C)C)cc2)c(C#N)c(=O)[nH]1
→ -21 | -1.1
- COc1cc([C@@H]2c3cc4c(cc3C(OC3O[C@@H]5COC(C)O[C@H]5[C@H](O)[C@H]3O)C3COC(=O)[C@@H]32)OCO4)cc(OC)c1O (stereo not given in full)
→ -1.5 | 0.8&-0.094
- Cc1cccc(N2C(=O)CC(Sc3nccc(C)n3)C2=O)c1 (stereo not given)
→ 3.8 | ·
- O=C(CN1CCOCC1)Nc1ncc(Cc2ccc(Cl)cc2)s1
→ -3.3 | 0.55
- O=C(OCC(=O)N1CCOCC1)c1ccccc1Cc1ccccc1
→ 1.0 | ·
- O=C(O)CCCc1nnc2c(=O)n(-c3ccc(Cl)cc3)ccn12
→ 0.3 | 1.4
- Cc1nsc(N)c1C(=O)OCC(=O)Nc1ccc(F)cc1
→ -5.2 | ·
- COC(=O)c1ccc(CSc2nc(C)nc3sc4c(c23)CCCC4)o1
→ 2.2 | ·
- CCN1C(=C(C#N)C#N)C=Cc2cc(C)ccc21
→ 1.1 | 0.27
- CC1(C)C=Cc2c(c3ccccc3[nH]c2=O)O1
→ -0.7 | 0.43
- CCCC(C(=O)O)n1cnnn1 (stereo not given)
→ -0.8 | 0.92
- O=C(O)c1nccnc1C(=O)Nc1ccc(N2CCOCC2)cc1
→ -4.2 | ·
- CC(C)NC(=O)c1ccccc1NS(=O)(=O)Cc1ccccc1
→ 0.7 | -0.17
- COc1ccc(-c2noc(N3CCC(C(N)=O)CC3)n2)cc1OC
→ -1.9 | 1.4
- COC(=O)CCCCC1SCC(NC(=O)c2ccccc2)C1OC(C)=O (stereo not given)
→ -0.4 | 1.2
- CCNC(=S)N1CCN(CCN=Cc2c(O)[nH]c(=O)[nH]c2=O)CC1
→ -2.5 | 0.097
- CN1C(=O)/C(=C/c2ccccc2OCc2ccc(C(=O)O)cc2)NC1=S
→ 1.5 | ·
- O=Nc1c(O)n(CN2CCCCC2)c2ccccc12
→ 1.6 | ·
- CCOC(=O)C1CCCN(Cc2ccc(CC)cc2)C1 (stereo not given)
→ 0.6 | -0.66
- O=C1NCCCCC1NC(=S)Nc1ccccc1 (stereo not given)
→ 4.2 | 0.022
- COc1cccc(-c2nc(CN3CCC(=O)CC3)cs2)c1
→ -3.5 | ·
- CC1=CC(=O)C(C(=O)/C=C/c2ccc(N3CCCCC3)cc2)C(=O)O1 (stereo not given)
→ -23 | ·
- O=C(COC(=O)c1ccccc1NCc1ccco1)c1ccc2[nH]c(=O)[nH]c2c1
→ 0.2 | ·
- Nc1ccnn1Cc1ccsc1
→ 4.5 | ·
- O=C(COC(=O)c1ccc(Cl)nc1)c1cc2c3c(c1)CC(=O)N3CCC2
→ -2.4 | ·
- Cc1c(C(=O)O)oc2ccc(S(=O)(=O)N3CCCCCC3)cc12
→ 0.2 | -0.063
- CCn1c(SCC(=O)N2c3ccccc3Sc3ccccc32)nnc1-c1ccco1
→ -1.7 | 1.1
- CCc1oc2cc(OC(C)=O)ccc2c(=O)c1-c1ccc2c(c1)OCCO2
→ 0.1 | -0.24
- COc1ccccc1OCCNC(=O)c1n[nH]c2ccccc12
→ -1.9 | ·
- COc1ccc(CN(C(=O)CSc2nnc(-c3ccc(OC)c(OC)c3)o2)c2ccc(F)cc2)cc1
→ 0.7 | -0.79
- COc1ccccc1-c1nnc(SCC(=O)c2cc(C)n(C)c2C)n1C
→ 1.5 | ·
- CC1CN(c2ncnc3c2cnn3-c2ccccc2)CC(C)O1 (stereo not given)
→ -1.7 | -0.77
- Cc1cc(C)nc(SCC(=O)OCC(=O)c2ccc3[nH]c(=O)[nH]c3c2)n1
→ -0.7 | ·
- C=CCN1C(=O)C(C(=O)Nc2ccc(C)cc2)C2CC1(C)Oc1ccccc12 (stereo not given)
→ 3.2 | 0.14
- CSc1nnc(SC2CC(=O)N(c3cc(Cl)cc(Cl)c3)C2=O)s1 (stereo not given)
→ -2.1 | ·
- O=C(O)c1ccccc1SC1CCS(=O)(=O)C1 (stereo not given)
→ 1.1 | ·
- CCN(Cc1ccc(Cl)s1)Cn1c(CO)nc2ccccc21
→ -0.7 | ·
- CCOC(=O)N1CCN(C(=O)Cn2cnc3c(nnn3-c3cccc(Cl)c3)c2=O)CC1
→ 0.0 | 0.13
- CC(C)(CO)NC(=S)NC1CC1
→ 1.1 | 0.67
- CC(C)C(NC(=O)c1ccc(F)cc1)C(=O)O (stereo not given)
→ · | -0.64
- CCN(CC)c1ccc(CNc2ccc3c(c2)ncn3C)cc1
→ 2.8 | 0.53
- NC(=O)NO
→ -0.1 | -0.24&0.5
- CCCN1C(=O)c2ccc(C(=O)Nc3cc(OC)c(OC)cc3C(=O)O)cc2C1=O
→ -1.5 | 2.1
- CCOc1ccccc1NC(=O)C(C)CC (stereo not given)
→ 2.1 | 0.044
- C=CCNc1nc(Nc2ccc(-c3nc4ccccc4o3)cc2)nc(N2CCOCC2)n1
→ 0.4 | ·
- COc1ccc(C(CC(=O)O)N2Cc3ccccc3C2=O)cc1 (stereo not given)
→ · | 3.4
- COc1cccc(C(=O)COc2ccc3ccc(=O)oc3c2)c1
→ 1.7 | -0.071
- CCCN(Cc1cc2cccc(C)c2[nH]c1=O)C(=O)c1cc(OC)c(OC)c(OC)c1
→ -0.7 | -0.82
- Cc1cc(C(=O)CSc2ncn[nH]2)c(C)n1CC(F)(F)F
→ -0.9 | ·
- C[C@]12CC[C@@H]3c4ccc(O)cc4CC[C@H]3[C@@H]1CC[C@@H]2O
→ 0.1&-0.2 | 0.047&-0.38&0.25&-0.13

This is a subset; the hit share may differ from the screen's.
